# Bioassay records from PubChem BioAssay.
# NS1 function inh: inhibitors of influenza NS1 protein function | 270,000 tested, 0.4% active | AID 2326 | Potency, µM (highest dose often 46.1 µM), for inactives: at the top dose activity, positive = more growth | S. cerevisiae slowed by influenza A NS1, growth recovery by OD600; note: actives are rising curves; nearly all actives have a fitted effect of over 50% in size
#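 Read-out: OD600 growth recovery of NS1-expressing budding yeast. Cells grown overnight at 30C in -URA glucose medium, washed, resuspended and diluted 1:100 in 2% galactose assay medium, pH 6.0. Same strain lacking NS1 served as positive control.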
# SARS PLpro yeast: SARS-CoV PLP inhibition in yeast; S. cerevisiae expressing SARS-CoV PLpro, growth rescue; control for the full effect not named in the record; Potency, µM (series often up to 32.9 µM), without a hit: top-dose activity, positive = growth rescue; 330,000 tested, 0.19% active; AID 485353; note: 0% is about no effect; nearly all actives have a fitted effect of over 55% in size; growth read by luminescence after 48 h
# Cruzain inh Det: blocks cruzain activity in presence of Triton detergent; P25779; purified cruzain, Z-FR-AMC fluorescence, 0.01% Triton; Potency, µM, for inactives: max response, negative = inhibition, actives largely listed as inhibitors; 200,000 tested, 0.43% active; AID 1478; active = well fitted curve in the direction sought with a large enough effect; inconclusive = small, poorly fitted or top-dose-only effect, or another doubt; inactive = no such curve, though single readings can be large; an effect the other way counts as inactive or inconclusive;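 note: plate controls were neutral wells for no effect and buffer without enzyme for full effect; nearly all actives have a fitted effect of over 40% in size; top concentration of the series not given in the record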
# Target sequence (P25779 123-467 limits assumed): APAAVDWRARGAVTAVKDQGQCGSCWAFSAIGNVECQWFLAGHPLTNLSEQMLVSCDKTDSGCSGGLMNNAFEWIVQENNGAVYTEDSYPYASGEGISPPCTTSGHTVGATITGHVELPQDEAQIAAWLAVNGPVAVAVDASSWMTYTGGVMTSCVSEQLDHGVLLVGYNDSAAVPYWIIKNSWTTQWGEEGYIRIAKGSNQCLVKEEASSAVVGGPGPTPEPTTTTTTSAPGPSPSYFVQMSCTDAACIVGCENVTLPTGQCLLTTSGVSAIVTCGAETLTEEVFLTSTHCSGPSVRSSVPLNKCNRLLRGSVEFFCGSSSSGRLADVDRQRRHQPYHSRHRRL
#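 Cruzain (1.5 nM) preincubated 15 min at RT with compound in 100 mM sodium acetate pH 5.5, 5 mM DTT, 0.01% Triton X-100. Reaction started with 2 uM Z-FR-AMC; AMC fluorescence (ex 360/em 450 nm) change over 60 s gave rate.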
# RE007 growth inh: less growth of the S. pombe RE007 Vpr strain; S. pombe RE007 Vpr strain, BacTiter-Glo ATP luminescence, 24 h; control for the full effect not named in the record; Potency, µM (series often up to 92.2 µM), without a hit: at the top dose activity change, negative = less growth; 360,000 tested, 0.21% active; active = well fitted falling curve with a large enough effect; inconclusive = small, poorly fitted or top-dose-only effect; inactive = no such curve, though single readings can be large or run the other way;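 note: % is set by controls: 0 for no effect and ±100 for the full control effect; nearly all actives have a fitted effect of over 50% in size; the assay follows cell death caused by Vpr and the record does not say whether a fall means rescue or toxicity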
#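 Fission yeast strain RE007, carrying one chromosomally integrated HIV-1 vpr copy, was seeded at OD 0.01 in PMG+AL medium with 23 nL pinned compound. After 24 h at 30 °C and 99% humidity, viability was read by BacTiter-Glo luminescence.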
# StopGo reporter: lowers the luciferase signal of an FMDV 2A StopGo reporter. Potency, µM (doses to about 57.9 µM), for the others: at the top dose signal change, negative = less light. human cells with a luciferase reporter of 2A StopGo recoding; control for the full effect not named in the record. 410,000 tested, 1.2% active; active = well fitted falling curve with a large enough effect; inconclusive = small, poorly fitted or top-dose-only effect; inactive = no such curve, though single readings can be large or run the other way; tested in HEK293T cells; note: % is set by controls: 0 for no effect and ±100 for the full control effect; nearly all actives have a fitted effect of over 45% in size; luciferase light after 4 h
# Marburg entry inh: Marburg virus entry inhibition | Marburg virus pseudotyped entry inhibition, cell reporter; control for the full effect not named in the record; about a third of the inactives were read at about 46 µM | Potency, µM (doses to about 37.8 µM), for inactives: at the highest dose activity change, negative = inhibition, most hits filed as inhibitors | 300,000 tested, 1.8% active; active = well fitted inhibition curve with a large enough effect; inconclusive = small, poorly fitted or top-dose-only effect, or effect the other way; inactive = flat fitted curve, though single readings scatter; tested in HEK293 cells; about a fifth of its hits are not listed in these tables; note: % is set by controls: 0 for no effect and ±100 for the full control effect; luciferase read-out
# Lassa entry inh: inhibitors of Lassa virus binding or cell entry | Lassa virus pseudotype entry inhibition, cell reporter; control for the full effect not named in the record | Potency, µM (doses to about 37.9 µM), inactives show at the top dose activity change, negative = inhibition, usual class: inhibitors | 300,000 tested, 1.2% active | AID 540256; active means well fitted inhibition curve with a large enough effect; inconclusive means small, poorly fitted or top-dose-only effect, or effect the other way; inactive means flat fitted curve, though single readings scatter; tested in HEK293 cells; note: % is set by controls: 0 for no effect and ±100 for the full control effect; nearly all actives have a fitted effect of over 50% in size; luciferase read-out
# Cruzain noTriton: cruzain (T. cruzi) inhibition without detergent; Potency, µM, for the others: max response, negative = inhibition, actives largely listed as inhibitors; 200,000 tested, 2.3% active; AID 1476; purified cruzain, Z-FR-AMC fluorescence, no detergent; active = well fitted curve in the direction sought with a large enough effect; inconclusive = small, poorly fitted or top-dose-only effect, or another doubt; inactive = no such curve, though single readings can be large; an effect the other way counts as inactive or inconclusive;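 note: plate controls were enzyme without inhibitor for no effect and buffer without enzyme for full effect; nearly all actives have a fitted effect of over 40% in size; top concentration of the series not given in the record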
#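 Purified cruzain at 1.5 nM, pre-incubated 15 min with compound at room temperature in 100 mM sodium acetate pH 5.5, 5 mM DTT, 0.00005% Triton X-100. Reaction started with 2 uM Z-FR-AMC; AMC fluorescence increase over 60 s gives rate.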
# Active calls of the source: *; ? = inconclusive; . = no result given; & = joins results of further samples; [ ] = dose if it differs, or a comment. Unless noted, calls come from the whole dose curve; as a rule, active means well fitted rising curve with a large enough effect; inconclusive means small, poorly fitted or top-dose-only effect; inactive means no such curve, though single readings can be large or run the other way. Potency is the fitted concentration of half-maximal effect. Hits appear at their usual frequency; overall some 4.7% were active at least once.
1	CC(N)C(=O)NC1C2C(=C(O)CC(O)C2O)C(=O)OC1(C)C(Cl)Cl (centres undefined)
2	CN1C(=O)CSC1=Nc1cccc(Cl)c1
3	Cc1cc(NC(=O)c2cnn(-c3ccccc3)c2-n2cccc2)ccc1Br
4	Cc1cc(C(=O)COc2ccc3ccc(=O)oc3c2)c(C)n1C
5	O=C(Nc1ccc2c(c1)CN(Cc1ccco1)CC2)C1CCCO1 (centres undefined)
6	CC(NC(=O)CC1Sc2ccccc2NC1=O)c1ccccc1 (centres undefined)

assay / entry	1	2	3	4	5	6
NS1 function inh	.	-61%	.	.	24%	.
SARS PLpro yeast	.	0%	.	-6%	-3%	0%
Cruzain inh Det	.	.	-0.8%	.	.	.
RE007 growth inh	?	-11%	.	-19%	0%	-12%
StopGo reporter	?	-12%	-13%	-3%	-9%	-2%
Marburg entry inh	0.32µM*	.	17%[46.1 µM]	-12%[46.1 µM]	14%	-6%[46.1 µM]
Lassa entry inh	0.5µM*	.	26%[46.1 µM]	-25%	-13%	-23%
Cruzain noTriton	.	.	4%	.	.	.

7	CC(Sc1ncc(C(F)(F)F)cc1Cl)C(=O)NCC1CCCO1 (centres undefined)
8	Cc1c2cnn(CC(=O)N3CCCCC3)c(=O)c2c(C)n1Cc1ccc(F)cc1
9	COC(=O)c1nnn(-c2ccc(F)c(Cl)c2)c1C(=O)OC
10	Nc1ncnc(NC2CCS(=O)(=O)C2)c1[N+](=O)[O-] (centres undefined)
11	CCOC(=O)c1c(NC(C)=O)c2c3c(sc2n1Cc1nc(-c2ccccc2Cl)oc1C)CCCC3
12	COCCNCCOc1ccccc1-c1ccccc1

assay / entry	7	8	9	10	11	12
NS1 function inh	.	.	.	5%	.	3%
SARS PLpro yeast	-2%	.	-2%	0%	.	10%
Cruzain inh Det	.	-3.0%	.	.	-6.3%	-2.4%
RE007 growth inh	23%	.	-12%	-1%	.	-14%
StopGo reporter	-9%	10%	3%	-6%	0%	-5%
Marburg entry inh	-8%[46.1 µM]	0%[46.1 µM]	5%[46.1 µM]	5%[46.1 µM]	-1%[46.1 µM]	?
Lassa entry inh	-21%	?	15%	-19%[46.1 µM]	.	32%
Cruzain noTriton	.	2%	.	.	?	-1%

13	CCN(C(=O)Cn1cc(C(=O)C(=O)N2CCOCC2)c2ccccc21)c1ccccc1
14	CC(/C=C/c1ccccc1)=N/NC(=O)C(O)c1ccccc1 (centres undefined)
15	CN(Cc1ccccc1)C(=O)Nc1ccc2c(c1)N(C)C(=O)c1ccccc1S2
16	CC(=O)c1cccc(OCC(O)CN2CCN(S(=O)(=O)c3c(F)cccc3F)CC2)c1 (centres undefined)
17	CCc1ncc(C(=O)c2ccc(OC)cc2)n1C
18	CCOc1ccc(N(C(C)C(=O)Nc2cc(Cl)ccc2OC)S(C)(=O)=O)cc1 (centres undefined)

assay / entry	13	14	15	16	17	18
NS1 function inh	13%	-6%	.	-6%	4%	.
SARS PLpro yeast	-6%	10%	.	0%	2%	.
Cruzain inh Det	.	1.8%	-6.8%	.	-4.7%	-11%
RE007 growth inh	15%	-4%	.	6%	1%	.
StopGo reporter	-9%	47%[activator]	0%	-27%	-14%	0%
Marburg entry inh	.	14%	10µM*	.	1%	?
Lassa entry inh	.	-14%	?	.	6%	?
Cruzain noTriton	.	-13%	?	.	10%	0%

19	Cc1cc(-c2ccc(C)c(S(=O)(=O)N3CCOc4ccc(Cl)cc43)c2)on1
20	CCN(C(=O)COc1ncnc2scc(-c3ccc(F)cc3)c12)C1CCS(=O)(=O)C1 (centres undefined)
21	O=C(Nc1ccccc1C(=O)N1CCCCC1)c1ccccc1C(F)(F)F
22	CC(Cc1cccs1)NC(=O)NC1CCCCC1 (centres undefined)
23	CC(C)(Cc1nc2ccccc2[nH]1)C(=O)O
24	O=C(NCC(=O)N1CCN(c2ccccc2F)CC1)c1cccs1

assay / entry	19	20	21	22	23	24
NS1 function inh	.	-11%	7%	-10%	-16%	11%
SARS PLpro yeast	.	0%	-4%	3%	3%	2%
Cruzain inh Det	5.6%	-0.3%	.	4.6%	8.5%	.
RE007 growth inh	.	8%	24%	0%	-1%	4%
StopGo reporter	?	8%	-3%	.	23%	55%[activator]
Marburg entry inh	.	-12%	-4%	-8%	18%	30%
Lassa entry inh	?	15%	0%	7%	11%	?
Cruzain noTriton	?	20%	.	-9%	3%	.

25	CC(C)(C)NC(=O)C(=O)NNC(=O)c1cccc(Br)c1
26	Cc1ccc(NC2CCCN(C(=O)CCc3cn[nH]c3)C2)cc1C (centres undefined)
27	O=C(COc1ccc(Br)cc1)NCCCn1ccnc1
28	COc1ccccc1-c1cc(-c2ccc(O)cc2)nc(N)c1C#N
29	CC12C=CC3(O1)C(C(=O)N(c1cccnc1)C3C(=O)NC1CCCCC1)C2C(=O)Nc1ccccc1 (centres undefined)
30	CSc1nc(O)c(C(c2cccc([N+](=O)[O-])c2)c2c(O)nc(SC)[nH]c2=O)c(=O)[nH]1

assay / entry	25	26	27	28	29	30
NS1 function inh	.	5%	29%	-6%	-7%	?
SARS PLpro yeast	-1%	-5%	?	-7%	1%	1%
Cruzain inh Det	.	.	.	.	4.4%	.
RE007 growth inh	6%	-26%	-7%	0%	6%	14%
StopGo reporter	40%[activator]	-22%	-8%	?	24%	-6%
Marburg entry inh	18%[46.1 µM]	?	.	.	?	6%[46.1 µM]
Lassa entry inh	-15%	-8%	.	.	8%	3%[46.1 µM]
Cruzain noTriton	.	.	.	.	9%	.

# Shown with two lines to a compound: part of the list above
# Each structure is followed by: NS1 function inh	SARS PLpro yeast	Cruzain inh Det	RE007 growth inh	StopGo reporter	Marburg entry inh	Lassa entry inh	Cruzain noTriton
25. CC(C)(C)NC(=O)C(=O)NNC(=O)c1cccc(Br)c1
  .	-1%	.	6%	40%[activator]	18%[46.1 µM]	-15%	.
26. Cc1ccc(NC2CCCN(C(=O)CCc3cn[nH]c3)C2)cc1C (centres undefined)
  5%	-5%	.	-26%	-22%	?	-8%	.
27. O=C(COc1ccc(Br)cc1)NCCCn1ccnc1
  29%	?	.	-7%	-8%	.	.	.
28. COc1ccccc1-c1cc(-c2ccc(O)cc2)nc(N)c1C#N
  -6%	-7%	.	0%	?	.	.	.
29. CC12C=CC3(O1)C(C(=O)N(c1cccnc1)C3C(=O)NC1CCCCC1)C2C(=O)Nc1ccccc1 (centres undefined)
  -7%	1%	4.4%	6%	24%	?	8%	9%
30. CSc1nc(O)c(C(c2cccc([N+](=O)[O-])c2)c2c(O)nc(SC)[nH]c2=O)c(=O)[nH]1
  ?	1%	.	14%	-6%	6%[46.1 µM]	3%[46.1 µM]	.

# Carrying on:
31	COc1ccccc1CNC(=O)Cn1cccc1C(=O)c1ccccc1
32	Cc1ccc2nc(N(CCN(C)C)C(=O)C3=COCCO3)sc2c1
33	CCOc1ccc(S(=O)(=O)NC(C)(C)C)cc1-c1nc2c(C(C)(C)C)nn(C)c2c(=O)[nH]1
34	Cc1cc(C)nc(NS(=O)(=O)c2ccc(N3C(=O)C4CCCCC4C3=O)cc2)n1 (centres undefined)
35	CCOc1ccccc1N=c1oc2cc(O)ccc2cc1C(=O)NCC1CCCO1 (centres undefined)
36	COc1ccc(C(=O)CSc2[nH]c(=O)cc(C(F)(F)F)c2C#N)cc1

assay / entry	31	32	33	34	35	36
NS1 function inh	-6%	7%	28%	7%	5%	-4%
SARS PLpro yeast	3%	0%	?	1%	-22%	-1%
Cruzain inh Det	.	.	-11%	.	?	.
RE007 growth inh	9%	-8%	12%	5%	7%	1%
StopGo reporter	24%	5%	.	29%	-13%	-27%
Marburg entry inh	.	-28%[46.1 µM]	?	-6%[46.1 µM]	-8%	9%[46.1 µM]
Lassa entry inh	.	21%[46.1 µM]	21µM*	21%[46.1 µM]	-5%	?
Cruzain noTriton	.	.	?	.	?	.

37	CCOc1ccc(-c2cn3ccccc3n2)cc1
38	O=C(CC1(O)C(=O)Nc2cc(Cl)cc(Cl)c21)c1ccncc1 (centres undefined)
39	COc1cc2c(cc1/C=C/[N+](=O)[O-])OCO2
40	O=C(Nc1nnc(-c2ccc(F)cc2)s1)c1c(F)cccc1Cl
41	Cn1cnc(NCc2ccccc2)c1[N+](=O)[O-]
42	O=C(Nc1ccc2c(c1)Cc1ccccc1-2)c1cc2ccccc2o1

assay / entry	37	38	39	40	41	42
NS1 function inh	-7%	-19%	.	-2%	-3%	.
SARS PLpro yeast	-3%	-19%	-24%	?	-2%	.
Cruzain inh Det	.	-1.2%	.	.	.	.
RE007 growth inh	?	-16%	14µM*	-8%	10%	2%
StopGo reporter	-67%	-30%	14µM*	-4%	0%	5%
Marburg entry inh	3.5µM*	?	?	.	.	-5%
Lassa entry inh	?	?	?	.	.	10%
Cruzain noTriton	.	-11%	.	.	.	.

43	O=C(O)c1cccc(C(=O)Nc2cccc(NC(=O)C3CCCO3)c2)c1 (centres undefined)
44	O=c1[nH]nc(-c2ccccc2)c2ccccc12
45	Nc1nc(SCC(=O)N2CCCc3ccccc32)n(-c2ccccc2)n1
46	CCOC(=O)C1=C(C)NC(C)=C(C(=O)OCC)C1C(=O)OCC(=O)N1CCC(C)CC1
47	COc1ccc(Cl)cc1/C=C(\C#N)C(N)=O
48	O=C(CNC(=O)[C@@H]1Cc2ccccc2CN1)NCc1ccco1
49	COc1cccc(-n2c(COc3ccc(C)cc3)nnc2SCC(=O)O)c1

assay / entry	43	44	45	46	47	48	49
NS1 function inh	-8%	2%	-7%	-3%	4%	7%	-3%
SARS PLpro yeast	-2%	-2%	-6%	0%&4%	0%	6%	3%
Cruzain inh Det	4.8%	.	1.2%	1.8%	.	.	5.9%
RE007 growth inh	15%	4%	-1%	8%&-2%	23%	-3%	-13%
StopGo reporter	?	-8%	6%	3%&-1%	-27%	-17%	.
Marburg entry inh	11µM*	1%	.	1%&-4%	.	.	0%
Lassa entry inh	10µM*	-29%	.	?	.	.	6%
Cruzain noTriton	-3%	.	-8%	?	.	.	?
